Marburg entry inh: blocks Marburg virus binding to or entry into cells; AID 540276; Marburg virus pseudotyped entry inhibition, cell reporter; control for the full effect not named in the record; about a third of the inactives were read at about 46 µM; hit rate 1.8% among 300,000; Potency, µM (doses to about 37.8 µM), without a hit: at the highest dose activity change, negative = inhibition, usual class: inhibitors; active = well fitted inhibition curve with a large enough effect; inconclusive = small, poorly fitted or top-dose-only effect, or effect the other way; inactive = flat fitted curve, though single readings scatter; tested in HEK293 cells; about a fifth of its hits are not listed in these tables; further: on the % scale 0 is the no-effect control and ±100 the full control effect; luciferase read-out
SARS PLpro yeast: inhibitors of SARS-CoV papain-like protease in yeast; S. cerevisiae expressing SARS-CoV PLpro, growth rescue; control for the full effect not named in the record; Potency, µM (titrated, usually from 32.9 µM), for the others: at the top dose activity, positive = growth rescue; hit rate 0.19% among 330,000; AID 485353; further: 0% is about no effect; nearly all actives have a fitted effect of over 55% in size; growth read by luminescence after 48 h
NS1 inh: influenza NS1 inhibition; hit rate 0.4% among 270,000; AID 2326; Potency, µM (top dose mostly 46.1 µM), for the others: at the highest dose activity, positive = more growth; S. cerevisiae slowed by influenza A NS1, growth recovery by OD600; further: actives are rising curves; nearly all actives have a fitted effect of over 50% in size
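Recovery from NS1-induced slow growth read by OD600 in budding yeast switched to galactose assay medium (pH 6.0, -URA) at 1:100 dilution. Compound 23 nl per well; the matching strain lacking NS1 serves as control.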
Cruzain inh noDet: blocks cruzain activity in detergent-free assay | Potency, µM, for inactives: max response, negative = inhibition, most hits filed as inhibitors | hit rate 2.3% among 200,000 | purified cruzain, Z-FR-AMC fluorescence, no detergent | AID 1476; active means well fitted curve in the direction sought with a large enough effect; inconclusive means small, poorly fitted or top-dose-only effect, or another doubt; inactive means no such curve, though single readings can be large; an effect the other way counts as inactive or inconclusive;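 further: plate controls were enzyme without inhibitor for no effect and buffer without enzyme for full effect; nearly all actives have a fitted effect of over 40% in size; top concentration of the series not given in the record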
Target sequence (P25779 123-467 limits assumed): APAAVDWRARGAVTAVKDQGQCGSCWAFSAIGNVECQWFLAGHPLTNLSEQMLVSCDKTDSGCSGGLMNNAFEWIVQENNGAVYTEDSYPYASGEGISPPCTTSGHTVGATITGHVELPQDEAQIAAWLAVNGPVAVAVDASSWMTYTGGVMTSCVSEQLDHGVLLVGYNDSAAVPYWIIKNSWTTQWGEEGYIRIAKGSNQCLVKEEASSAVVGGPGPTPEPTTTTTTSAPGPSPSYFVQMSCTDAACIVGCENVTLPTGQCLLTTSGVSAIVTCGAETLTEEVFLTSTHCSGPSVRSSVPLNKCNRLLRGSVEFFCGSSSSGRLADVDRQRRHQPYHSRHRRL
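Purified cruzain at 1.5 nM, pre-incubated 15 min with compound at room temperature in 100 mM sodium acetate pH 5.5, 5 mM DTT, 0.00005% Triton X-100. Reaction started with 2 uM Z-FR-AMC; AMC fluorescence increase over 60 s gives rate.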
LASV entry inh: Lassa virus entry inhibition. Potency, µM (highest dose often 37.9 µM), inactives show top-dose activity change, negative = inhibition, hits mostly inhibitors. hit rate 1.2% among 300,000. Lassa virus pseudotype entry inhibition, cell reporter; control for the full effect not named in the record. AID 540256; active means well fitted inhibition curve with a large enough effect; inconclusive means small, poorly fitted or top-dose-only effect, or effect the other way; inactive means flat fitted curve, though single readings scatter; tested in HEK293 cells; further: on the % scale 0 is the no-effect control and ±100 the full control effect; nearly all actives have a fitted effect of over 50% in size; luciferase read-out
2A StopGo: lowers the luciferase signal of an FMDV 2A StopGo reporter. human cells with a luciferase reporter of 2A StopGo recoding; control for the full effect not named in the record. Potency, µM (titrated, usually from 57.9 µM), inactives show at the top dose signal change, negative = less light. hit rate 1.2% among 410,000. AID 1159524; active = well fitted falling curve with a large enough effect; inconclusive = small, poorly fitted or top-dose-only effect; inactive = no such curve, though single readings can be large or run the other way; tested in HEK293T cells; further: on the % scale 0 is the no-effect control and ±100 the full control effect; nearly all actives have a fitted effect of over 45% in size; luciferase light after 4 h
Cruzain Triton: cruzain (T. cruzi) inhibition with detergent; Potency, µM, without a hit: max response, negative = inhibition, most hits filed as inhibitors; P25779; purified cruzain, Z-FR-AMC fluorescence, 0.01% Triton; hit rate 0.43% among 200,000; active means well fitted curve in the direction sought with a large enough effect; inconclusive means small, poorly fitted or top-dose-only effect, or another doubt; inactive means no such curve, though single readings can be large; an effect the other way counts as inactive or inconclusive;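 further: plate controls were neutral wells for no effect and buffer without enzyme for full effect; nearly all actives have a fitted effect of over 40% in size; top concentration of the series not given in the record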
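Read-out: AMC fluorescence (360 nm excitation, 450 nm emission), four reads over 2 min, first-to-third difference used. Conditions: cruzain 1.5 nM, Z-FR-AMC 2 uM, pH 5.5 acetate, 5 mM DTT, 0.01% Triton X-100.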
RE007 growth inh: less growth of the S. pombe RE007 Vpr strain; Potency, µM (doses to about 92.2 µM), inactives show top-dose activity change, negative = less growth; S. pombe RE007 Vpr strain, BacTiter-Glo ATP luminescence, 24 h; control for the full effect not named in the record; hit rate 0.21% among 360,000; AID 651644; active = well fitted falling curve with a large enough effect; inconclusive = small, poorly fitted or top-dose-only effect; inactive = no such curve, though single readings can be large or run the other way;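 further: on the % scale 0 is the no-effect control and ±100 the full control effect; nearly all actives have a fitted effect of over 50% in size; the assay follows cell death caused by Vpr and the record does not say whether a fall means rescue or toxicity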
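Fission yeast strain RE007, carrying one chromosomally integrated HIV-1 vpr copy, was seeded at OD 0.01 in PMG+AL medium with 23 nL pinned compound. After 24 h at 30 °C and 99% humidity, viability was read by BacTiter-Glo luminescence.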
Numbers without * were called inactive; ? = inconclusive; . = not tested or not shown; & = joins results of further samples; [ ] = another dose, or the depositor's remark. Unless noted, the call rests on the fitted dose curve; in most records, active means well fitted rising curve with a large enough effect; inconclusive means small, poorly fitted or top-dose-only effect; inactive means no such curve, though single readings can be large or run the other way. Potency means the concentration at half of the fitted maximal effect.

SMILES	Marburg entry inh	SARS PLpro yeast	NS1 inh	Cruzain inh noDet	LASV entry inh	2A StopGo	Cruzain Triton	RE007 growth inh
Cc1ccc(-c2ccc(/C=N/NC(=O)CN3CCOCC3)o2)cc1[N+](=O)[O-]	?	-4%	.	.	?	1%	.	4%
O=C(CNc1ccc(Br)cc1)Nc1cccc(S(=O)(=O)N2CCCC2)c1	-3%	0%	.	.	?	6%	.	3%
CCCn1c(SCC(=O)Nc2cc(S(=O)(=O)N3CCOCC3)ccc2OC)n[nH]c1=O	?	-4%	13%	-10%	6%	-10%	-5.1%	4%
O=C(NNS(=O)(=O)c1cc(Cl)cc(Cl)c1)c1sccc1-n1cccc1	39%	-8%	10%	-8%	-10%	68%[activator]	1.6%	7%
O=S(=O)(c1ccccc1)c1nnn2c1nc(NC1CCN(Cc3ccccc3)CC1)c1ccccc12	.	-8%	-6%	.	.	28%	.	0%
O=C1C2C3c4ccccc4C(c4ccccc43)C2C(=O)N1Cc1ccco1 (stereo not drawn)	5%[46.1 µM]	4%	2%	-6%	?	?	-2.6%	12%
O=C(CNC(=O)c1ccc(-c2ccccc2)cc1)Nc1cccc(CO)c1	?	-8%	.	.	?	26%	.	-4%
COc1ccc(N=Nc2ccc(O)c3ncccc23)cc1	.	2%	17%	.	.	2%	.	-20%
COCc1cc(=O)[nH]c(/N=C(\N)Nc2ccc(Oc3ccccc3)cc2)n1	-29%&-3%	1%	-14%	?	?	?	-3.3%	24%
Cc1ccc(C)n1-c1nccc(-c2ccco2)n1	5%[46.1 µM]	-1%	.	.	-4%[46.1 µM]	19%	.	-22%
Cc1cccc(Cn2nnc3c(=O)[nH]c(C4CCCN(C(=O)c5ccccc5Cl)C4)nc32)c1 (stereo not drawn)	?	.	.	12%	-27%[46.1 µM]	-27%	-7.9%	.
O=C1CNC(=O)/C1=C\N1CCCCC1	?	-5%	2%	2%	9%	.	2.4%	2%

Quoted from the listing:
COc1ccc(N=Nc2ccc(O)c3ncccc23)cc1 in RE007 growth inh reads -20%
Cc1ccc(C)n1-c1nccc(-c2ccco2)n1 in Marburg entry inh reads 5%[46.1 µM]
Cc1cccc(Cn2nnc3c(=O)[nH]c(C4CCCN(C(=O)c5ccccc5Cl)C4)nc32)c1 (stereo not drawn) in LASV entry inh reads -27%[46.1 µM]

Going on with the list:
SMILES	Marburg entry inh	SARS PLpro yeast	NS1 inh	Cruzain inh noDet	LASV entry inh	2A StopGo	Cruzain Triton	RE007 growth inh
COc1cccc2cc(/C(=N/O)c3ccccc3)oc12	-3%	-3%	-4%	.	?	-15%	.	-7%
Cc1noc(C)c1COc1ccc(C(=O)OCC(=O)Nc2c(C)n(C)n(-c3ccccc3)c2=O)cc1	.	1%	4%	.	.	-4%	.	3%
Clc1ccc(-c2noc(-c3cccnc3N3CCN(c4ccccc4)CC3)n2)cc1	-16%[46.1 µM]	.	.	2%	5%[46.1 µM]	-1%	-3.2%	.
CCOC(=O)CC(=O)CSc1ncnc2c1nnn2-c1ccc(F)cc1	-27%[46.1 µM]	4%	.	.	-16%	-15%	.	20%
CCCCCCCC[n+]1cccc(C(=O)N2c3c(nc(N)[nH]c3=O)NC(C)C2C)c1 (stereo not drawn)	?	2%	-6%	18%	-10%	-3%	-1.7%	4%
O=C(NCc1ccncc1)C(=O)NCc1ccco1	.	-2%	3%	.	.	1%	.	11%
CCN1CCCC1CNC(=O)c1cc(S(=O)(=O)N(C)C)ccc1Cl (stereo not drawn)	-1%[46.1 µM]	1%	3%	.	16%[46.1 µM]	13%	.	11%
CCCCn1c(N)c(N(CC(C)C)C(=O)c2ccc(-c3ccc([N+](=O)[O-])cc3)o2)c(=O)[nH]c1=O	29%	-4%	.	.	-8%	-13%	.	7%
COc1ccc(CC2(C)OC(c3ccc(C)c([N+](=O)[O-])c3)=NN2C(C)=O)cc1 (stereo not drawn)	?	-3%	-2%	.	0.79µM*	?	.	11%
O=C(CSc1nc2ccccc2o1)Nc1ccc(Cl)cc1	-3%	-17%	-36%	2%	17%	24%	-0.8%	13%
O=C(O)C1CCCN(C(=O)c2cccc3ccccc23)C1 (stereo not drawn)	6%[46.1 µM]	-9%	-8%	.	11%[46.1 µM]	3%	.	-19%
CCOC(=O)c1ccccc1N1C(=O)C2Sc3[nH]c(=O)sc3C(/C=C/c3ccccc3)C2C1=O (stereo not drawn)	0%	?	27%	-11%	-15%	?	-21%	-8%

Quoted at random: 3 records from the list
SMILES	Marburg entry inh	SARS PLpro yeast	NS1 inh	Cruzain inh noDet	LASV entry inh	2A StopGo	Cruzain Triton	RE007 growth inh
COc1cccc2cc(/C(=N/O)c3ccccc3)oc12	-3%	-3%	-4%	.	?	-15%	.	-7%
Clc1ccc(-c2noc(-c3cccnc3N3CCN(c4ccccc4)CC3)n2)cc1	-16%[46.1 µM]	.	.	2%	5%[46.1 µM]	-1%	-3.2%	.
CCCCn1c(N)c(N(CC(C)C)C(=O)c2ccc(-c3ccc([N+](=O)[O-])cc3)o2)c(=O)[nH]c1=O	29%	-4%	.	.	-8%	-13%	.	7%

Further records follow.
SMILES	Marburg entry inh	SARS PLpro yeast	NS1 inh	Cruzain inh noDet	LASV entry inh	2A StopGo	Cruzain Triton	RE007 growth inh
CCc1ccccc1NC(=O)C1CCCN(c2ncnc3onc(-c4ccc(F)cc4)c23)C1 (stereo not drawn)	.	3%	3%	.	.	-25%	.	-11%
O=C(c1ccc2c(c1)OCCO2)N(Cc1cccnc1)c1nc2c(F)cc(F)cc2s1	.	.	.	28%	?	0%	-4.2%	.
CC1CC1C(=O)OCC(=O)Nc1cccc([N+](=O)[O-])c1 (stereo not drawn)	-3%[46.1 µM]	3%	6%	.	?	46%[activator]	.	-16%
CCC(c1ccc(O)c(O)c1)C(CC)c1ccc(O)c(O)c1 (stereo not drawn)	?	.	.	.	?	-18%	.	-17%
CCOC(=O)C1CCN(C(=O)C2CCN(S(=O)(=O)c3ccc4c(c3)CC(C)N4C(C)=O)CC2)CC1 (stereo not drawn)	?	10%	-8%	.	2%[46.1 µM]	-11%	.	-3%
COc1ccc(CCNC(=O)Cc2cc(OC)c(OC)cc2Br)cc1OC	-18%[46.1 µM]	8%	.	.	19%[46.1 µM]	-15%	.	2%
Cn1c(N)cc(=O)n(Cc2ccccc2)c1=O	4%	-1%	24%	-10%&-3%	4%	0%	-0.5%&-0.2%	-6%
CC(C)C1Oc2ccccc2N(CC(=O)NC2CCCCC2)C1=O (stereo not drawn)	?	0%	-1%	.	-22%	8%	.	-10%
CCn1cc(C(=O)O)c(=O)c2cc(F)c(N3CCN(S(=O)(=O)c4ccc(NC(C)=O)cc4)CC3)cc21	3%	4%	?	-7%	7%	-17%	?	11%
COc1ccc(C(=O)NC(=S)Nc2ccc(N3CCOCC3)cc2)cc1Cl	?	28%	3%	.	?	-23%	.	-21%
CC(=O)N(Cc1cccnc1)c1cccc(-c2nc3ccccc3s2)c1	.	0%	-1%	.	-22%	0%	.	1%
COc1ccc(-c2ccc(=O)n(CC(=O)Nc3cc(OC)ccc3OC)n2)cc1	.	.	.	8%	-16%[46.1 µM]	-7%	-2.3%	.
O=C(O)COc1ccc(Br)cc1CP(=O)(c1ccccc1)c1ccccc1	-9%[46.1 µM]	1%	10%	.	27%	-13%	.	-6%
CCc1nnc(NC(=O)c2ccc(C)o2)s1	.	-1%	-8%	.	.	82%[activator]	.	3%
CCCN(CCC)C(=O)Cn1c(=O)n(-c2ccc(CC)cc2)c(=O)c2c3c(sc21)CCC3	8%[46.1 µM]	.	.	-7%	8%[46.1 µM]	-16%	-2.7%	.
CSc1ccc(NC(=O)/C=C/C(=O)O)cc1	14%[14.2 µM]	-2%	4%	.	-5%	-2%	.	5%
O=C(NCCN1CCOCC1)c1cc(-c2ccc(F)cc2)on1	10%	7%	-5%	5%	-6%	34%[activator]	-1.3%	-2%
CC(C)[C@H](NC(=O)c1ccc(Cl)c([N+](=O)[O-])c1)C(=O)NCc1ccc(Cl)cc1Cl	-5%	-11%	13%	?	-19%	0%	-1.8%	-11%
Cc1nn(-c2ccccc2)c(N2CCCC2)c1/C=N/NC(=O)c1cc(-c2cccs2)nc2ccccc12	?	1%	?	10µM*	?	-10%	-4.7%	-11%
O=C(CNC(=O)N1CC(=O)Nc2ccccc21)Nc1cc(Cl)ccc1Cl	.	-4%	-11%	.	.	-18%	.	-5%
Cc1ccc(Cl)cc1N1CCN(C(=O)C2(S(=O)(=O)c3ccc(Cl)cc3)CC2)CC1	-19%	-16%	15%	5%	1%	?	-0.3%	14%
COc1ccc(C(=O)Nc2ccccc2C(=O)O)cc1NC(=O)C(c1ccccc1)c1ccccc1	.	-1%	22%	.	.	8%	.	0%
CN1CCN(S(=O)(=O)c2ccc(NC(=S)NC(=O)c3ccc(Cl)cc3)cc2)CC1	-60%	-20%	11%	?	-7%	-4%	-6.0%	8%
CCOC(=O)C1=C(N)OC2=C(C(=O)CC(C)(C)C2)C1C1CCCCC1 (stereo not drawn)	-23%	-7%	9%	-8%	-20%	?	-3.9%	5%
NC(=O)[C@@H]1CCCN1Cc1nc(-c2cccs2)no1	6%	1%	-2%	.	18%	3%	.	10%
COc1ccc(NC(=O)Cn2ccn(Cc3ccccc3)c(=O)c2=O)cc1Cl	.	.	.	6%	-21%[46.1 µM]	1%	-3.4%	.
CC(=O)N(CCc1ccccc1C)Cc1cc2ccc(C)cc2[nH]c1=O	?	-1%	0%	.	7%	0%	.	1%
CN(CCOc1ccccc1)c1ccc(S(=O)(=O)N2CCCCC2)cn1	-20%	-12%	-48%	2%	?	-22%	-7.3%	0%
CC(=O)Nc1ccc(S(=O)(=O)N2CCN(C(=O)C3COc4ccccc4O3)CC2)cc1 (stereo not drawn)	?	2%	-18%	.	?	?	.	1%
CCCn1c(O)c(N=NC(=O)CNC(=O)c2cccnc2)c2ccccc21	10%[46.1 µM]	0%	-1%	.	-11%[46.1 µM]	-10%	.	-15%

Screening data deposited in PubChem by National Center for Advancing Translational Sciences (NCATS).
